# High-throughput results: PubChem, Broad Institute
# T cruzi repl: blocks replication of Trypanosoma cruzi; T. cruzi beta-gal in NIH3T3, luminescence, 90 h; inhibition, % (test concentration not listed); 300,000 compounds, 1.4% hits;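 active means mean inhibition across valid replicates above about 55%, limit read from the data; inconclusive means mean below that limit but half or more replicates reach it; inactive means mean below it, under half of replicates reach it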;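 further: signal also drops with host cell toxicity which is not excluded here; 0% = plate median of DMSO wells and 100% = zero luminescence signal; higher percent means less beta-gal luminescence so fewer parasites; stock transfer was 50 nL into about 50 µL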
# ALR H2O2 inh: blocks human ALR sulfhydryl oxidase activity. purified ALR, DTT oxidation, H2O2 HRP-luminol luminescence. inhibition, % (test concentration not listed). 290,000 compounds, 3.8% hits. AID 485317;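 active means mean and each replicate at 75% or more; inconclusive means only one of the two met; inactive means neither met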;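 further: stock transfer was 7.5 nL into about 7.5 µL; 0% = neutral wells and 100% = wells with inactivated enzyme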
# Target sequence (P55789 whole entry, looked up): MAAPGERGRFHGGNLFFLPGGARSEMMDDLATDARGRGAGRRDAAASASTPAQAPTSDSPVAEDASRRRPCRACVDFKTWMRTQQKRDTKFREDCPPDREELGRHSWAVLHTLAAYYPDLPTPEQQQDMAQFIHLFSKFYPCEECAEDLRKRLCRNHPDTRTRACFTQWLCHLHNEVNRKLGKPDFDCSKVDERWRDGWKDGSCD
# Calb FLC: affects C. albicans growth with fluconazole. C. albicans CaCi-2 (fluconazole-resistant clinical isolate) + fluconazole, Alamar Blue growth, 48 h. growth inhibition, % (no concentration beside the values). 300,000 compounds, 0.57% hits. AID 1979;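 active means most replicates above 75%; inconclusive means exactly half above 75%; inactive means most below 75%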;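 further: all wells also contain fluconazole at 8 µg/ml as a sub-toxic cotreatment; 0% = median of DMSO wells and 100% = median of geldanamycin control wells; wells of about 8 µL received 7.5 nL stock; the first replicate is given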
# rRNA inh HTS: inhibits bacterial ribosomal RNA function over humanized ribosomes | E. coli WT GFP vs humanized-ribosome RFP mutants, fluorescence, 24 h; hits give low values; DMSO median 0, no signal -100 | GFP signal change (wild-type ribosome), % (test concentration not listed) | 350,000 compounds, 1.6% hits;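 active means significant combined selectivity score with lowered wild-type GFP, culture density cut under 30%, mutant RFP and density less affected; inactive means any of these conditions unmet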; further: one replicate is shown; some compounds called inactive have numbers as strong as hits
# FGF22 binding: FGF22 (human) thermal shift binding | Q9HCT0 | recombinant FGF22 thermal shift, SYPRO orange fluorescence; percent of sucrose octasulfate shift, DMSO zero | calls only at 9.99 µM | 340,000 compounds, 1.5% hits;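 active means melting point raised past a set limit in the mean and every replicate; inconclusive means no clear call; three in four hits are not shown here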
# Target sequence (Q9HCT0 whole entry, looked up): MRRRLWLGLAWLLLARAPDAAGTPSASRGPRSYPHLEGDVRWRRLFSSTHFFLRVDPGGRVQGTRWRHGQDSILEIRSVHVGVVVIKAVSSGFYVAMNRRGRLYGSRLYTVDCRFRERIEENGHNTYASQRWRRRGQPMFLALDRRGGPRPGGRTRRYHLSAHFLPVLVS
# Beta cell apopt: beta cell apoptosis inhibition. INS-1E cytokine-induced death, ATP luminescence, 48 h; percent of positive-control rescue, neutral wells zero. protection from apoptosis, % (no concentration beside the values). 300,000 compounds, 0.8% hits;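 active means all replicates at 75% or more, or half of them and the mean; inconclusive means half reach 75% but not the mean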;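 further: 0% = cytokine-treated negative control wells and 100% = positive control rescue; higher means more ATP so stronger rescue from cytokine killing; wells of about 40 µL received 100 nL stock; the first replicate is given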
# MLL AF4-AF9 inh: blocks AF4 peptide binding to human AF9; AlphaScreen, biotin-AF4 peptide binding to FLAG-AF9; inhibition, % at 10 µM; 350,000 compounds, 0.47% hits; AID 651704;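 active means every replicate reaching a set inhibition limit, whatever the replicate mean, cut at about 25% in these data; inconclusive means mean inhibition reaches that limit but some replicates miss it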;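 further: 0% = plate neutral control median and 100% = total signal loss; the record names both 10 and 1 µM as test concentration; the first replicate is given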
# Target sequence (P42568 whole entry, looked up): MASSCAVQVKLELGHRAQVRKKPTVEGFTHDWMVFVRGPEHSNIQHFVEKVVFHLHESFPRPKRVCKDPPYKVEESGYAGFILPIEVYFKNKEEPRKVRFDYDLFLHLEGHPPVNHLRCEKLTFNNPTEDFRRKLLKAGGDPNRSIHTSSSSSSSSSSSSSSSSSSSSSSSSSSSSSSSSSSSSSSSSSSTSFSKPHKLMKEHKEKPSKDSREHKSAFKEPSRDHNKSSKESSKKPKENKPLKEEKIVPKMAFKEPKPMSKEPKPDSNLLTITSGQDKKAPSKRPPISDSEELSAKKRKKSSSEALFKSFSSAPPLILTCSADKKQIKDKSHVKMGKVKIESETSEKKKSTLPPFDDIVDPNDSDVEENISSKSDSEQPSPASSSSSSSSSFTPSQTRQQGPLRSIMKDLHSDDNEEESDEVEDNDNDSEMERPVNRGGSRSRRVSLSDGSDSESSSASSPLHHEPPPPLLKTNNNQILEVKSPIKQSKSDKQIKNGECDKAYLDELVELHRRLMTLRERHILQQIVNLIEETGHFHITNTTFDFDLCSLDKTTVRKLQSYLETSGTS
# RanGTP-Impb inh: inhibitors of RanGTP-importin-beta interaction, primary screen, biochemical, FRET, CFP-Ran, YFP-importin-beta, homogeneous. cell-free CFP-Ran/YFP-importin-beta FRET ratio. AID 2216. inhibition, % (no concentration beside the values). 300,000 compounds, 1.1% hits;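 active means most replicates above 15%; inconclusive means exactly half above 15%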;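 further: 0% = DMSO wells and 100% = Ran loaded with GDP instead of GTP; wells of about 40 µL received 100 nL stock; the first replicate is given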
# rRNA inh HTS OD600: recorded beside rRNA inh HTS, whose call it bears; OD600 change, %; measured here: OD600 growth;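 optical density of the mix in the first replicate; 0 = DMSO median and -100 = no signal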
# rRNA inh HTS RFP: second read-out of rRNA inh HTS, no call of its own (marks repeat the call); RFP signal change, %; measured here: RFP humanized mutant strains;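 first replicate; 0 = DMSO median and -100 = no signal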
# Starred values were filed as active, the others as inactive; i = inactive; ? = inconclusive; . = no result given. The list is partial (hit frequency here may not be typical).
Molecule,T cruzi repl,ALR H2O2 inh,Calb FLC,rRNA inh HTS,rRNA inh HTS OD600,rRNA inh HTS RFP,FGF22 binding,Beta cell apopt,MLL AF4-AF9 inh,RanGTP-Impb inh
CN(CC(=O)Nc1ccc(F)cc1)C(=O)COc1ccccc1Cc1ccccc1,-6,-4,.,-41,-71,-1.8,i,-4,-2.1,0.0
N=c1c(C(=O)NC2CCCC2)cc2c(=O)n3ccccc3nc2n1CCN1CCOCC1,3,-2,5,.,.,.,.,-3,.,99*
CCCCCC(NC(=O)C1CCN(C(=O)[C@@H](NS(=O)(=O)c2ccc(C)cc2)C(C)C)CC1)C(=O)O (stereo partly drawn),-8,-27,-4,.,.,.,i,-4,6.8,3.1
O=c1c2cnn(-c3ccccc3)c2nc(-c2cccs2)n1-c1ccc(Br)cc1,45,-4,-2,.,.,.,.,.,.,-4.2
O=C(c1ccc(Cl)c([N+](=O)[O-])c1)N1CCCc2ccccc21,0,-6,1,-14,-13,-6.0,i,0,6.9,1.0
CSc1ccccc1NC(=O)c1ccc(Cl)s1,4,-7,4,.,.,.,.,-1,.,4.1
CCCCCCCCNC(=O)c1ccc(C)cc1,-8,-6,-6,-22,-22,-7.8,i,-3,-1.5,0.2
O=C(Oc1cccc(NC(=O)c2ccccc2Cl)c1)c1ccc([N+](=O)[O-])cc1,1,-3,1,.,.,.,.,1,.,-1.0
c1ccc(Cc2noc(CN3CCCC(CN4CCOCC4)C3)n2)cc1 (stereo not drawn),-4,-4,-17,2,13,1.2,i,-12,-6.0,-0.6
CCCC1=Nc2cc(C(=O)NCCN3CCOCC3)ccc2Sc2ccccc21,18,-1,-6,-26,-27,-5.1,i,0,6.5,4.1
COc1ccc(Cl)cc1C(=O)NNC(=O)c1cc2ccccc2o1,.,-4,.,16,19,1.9,i,1,-0.5,.
Cc1ccc(C)c(S(=O)(=O)NC(CCC(N)=O)C(=O)O)c1 (stereo not drawn),-1,-4,2,.,.,.,.,-1,.,6.8
O=S(=O)(Nc1ncccn1)c1ccc(Cl)cc1,-4,0,-7,16,8,6.2,i,3,-12,1.7
COc1ccc2c(c1)CC/C(=C/c1ccccn1)C2=O,-24,-8,-4,0,0,10,i,-11,2.1,0.0
Cn1c(=O)oc2cc(S(=O)(=O)NCCC(=O)NCc3ccccc3Cl)ccc21,-29,-2,-1,1,-4,-0.2,i,-1,-3.2,6.1
O=C(CN1C(=O)NC2(CCCC2)C1=O)NCc1ccccc1,.,1,.,22,20,4.5,i,-4,1.9,.
Cn1c(N)c(C(=O)COC(=O)[C@H](Cc2ccccc2)N2C(=O)c3ccccc3C2=O)c(=O)n(C)c1=O,5,2,-4,.,.,.,.,-4,.,-2.2
CN(C(=O)CSc1nnn(C)n1)c1ccccc1,-6,-10,0,20,10,1.0,i,.,-0.4,0.1
COc1ccc(CN(C(=O)c2cnccn2)C(C(=O)NC(C)(C)C)c2cc(OC)c(OC)c(OC)c2)cc1 (stereo not drawn),8,-1,-2,.,.,.,.,2,.,-6.4
CCOc1ccccc1-c1cc(C(=O)Nc2ccc(C(=O)O)cc2)c2ccccc2n1,-12,-1,11,7,15,2.9,i,5,-2.1,?
CN(CC(=O)Nc1ccccc1Cl)C(=O)C1CCN(C(=O)c2ccc(F)cc2)CC1,.,3,.,-7,-5,-1.0,i,-2,4.8,.
COc1ccc(NC(=O)c2nc[nH]c2C(=O)N[C@@H](C)C(=O)OC(C)(C)C)cc1,13,26,2,.,.,.,.,2,.,-3.3
NS(=O)(=O)c1cccc(NC(=O)c2cccnc2Oc2ccccc2)c1,.,-8,0,3,-7,0.2,i,-9,.,-0.4
O=C(Cc1ccccc1)Nc1nc(-c2ccc(F)c(F)c2)cs1,13,.,-16,2,19,-0.6,i,0,-3.9,6.4
CCCCCCC(O)(c1ccc(OC)cc1)C(CN1CCOCC1)c1ccccc1 (stereo not drawn),36,-8,-1,-3,-11,4.3,i,8,0.6,2.1
CCOc1ccc(N(C(=O)c2ccc3c(c2)OCO3)C2C=CS(=O)(=O)C2)cc1 (stereo not drawn),5,0,0,11,8,4.2,i,-2,1.5,3.8
O=C(CN1CCN(c2nc(-c3ccc(F)cc3)cs2)CC1)Nc1ccc2c(c1)OCO2,18,22,-5,-5,-5,17,i,-9,-35,6.1
O=C(Nc1ccc(C(F)(F)F)cc1)c1ccccc1-n1cnnn1,.,-5,.,3,-9,2.8,i,10,-11,.
O=C(NCC(c1ccco1)N1CCc2ccccc2C1)c1ccc(F)cc1 (stereo not drawn),-2,-5,1,5,4,1.8,i,-2,-0.8,-2.7
CN(C)C(CNC(=O)CCNC(=O)c1ccc(Br)cc1)c1ccco1 (stereo not drawn),6,-2,7,8,7,2.2,i,-9,-0.2,1.1

# Continuation.
Molecule,T cruzi repl,ALR H2O2 inh,Calb FLC,rRNA inh HTS,rRNA inh HTS OD600,rRNA inh HTS RFP,FGF22 binding,Beta cell apopt,MLL AF4-AF9 inh,RanGTP-Impb inh
CCC(CC)C(=O)N1CC(=O)Nc2ccc(C)cc2C1c1ccccc1 (stereo not drawn),14,-4,-6,2,-3,2.3,i,-6,0.6,-1.7
O=C(Nc1cc(C(=O)N2CCN(c3ccccc3)CC2)ccc1Cl)c1cccs1,.,7,.,-4,-22,2.3,i,6,-0.1,.
CCCCC(C(=O)N/N=C/c1ccccn1)C(=O)N/N=C/c1ccccn1,-13,-12,3,4,10,0.7,i,1,-2.9,2.7
CCOC(=O)c1cccc(NC(=O)C2(S(=O)(=O)c3ccc(Cl)cc3)CC2)c1,11,-1,22,-19,-21,0.2,i,-7,8.4,-2.2
Cc1csc2nc(CCNS(=O)(=O)c3cccs3)cn12,-11,-3,0,6,7,-8.4,i,-5,6.6,1.1
O=S(=O)(c1ccc(Br)cc1)n1c(Cc2ccccc2)nc2ccccc21,-3,2,5,-2,4,-6.8,i,8,-6.7,7.0
Cn1nc(C(F)(F)F)c2cc(C(=O)Nc3ccc(F)cc3F)sc21,5,3,63,.,.,.,.,-4,.,2.0
CC[N+]1=CN(c2ccccc2)C(C)=CC1(C)C,-9,10,9,10,7,0.6,i,-2,5.7,1.1
O=C(OCC(=O)N1CCOCC1)c1ccccc1OCc1ccccc1,.,.,.,-2,2,-2.2,i,0,0.3,.
CCc1ncc(CN2CCCC(C(=O)Nc3cccc(-c4cccc(C)c4)c3)C2)cn1 (stereo not drawn),1,-5,-16,-54,-80,-16,i,3,0.7,-2.0
Cc1cc(NC(=O)c2cnn3c(C(F)(F)F)cc(-c4ccc(Br)cc4)nc23)no1,7,-6,-4,.,.,.,.,19,.,-0.6
COc1ccc(CCNC(=O)c2ccccc2C(=O)NCCc2ccc(OC)c(OC)c2)cc1OC,-15,9,1,-3,5,0.1,i,.,-2.6,2.1
COc1ccc(S(=O)(=O)N2CCC(C(=O)NC3CC3)CC2)cc1Cl,9,.,-3,.,.,.,.,0,.,-0.5
O=C(COC(=O)c1ccc(Cl)nc1)Nc1ccc(S(=O)(=O)N2CCCC2)cc1,-9,-18,?,-1,7,0.3,.,-4,0.4,-4.4
N#Cc1ccc(-c2csc(NC(=O)/C=C/c3cccs3)n2)cc1,-140,.,9,.,.,.,.,15,.,-1.1
O=C(CNC(=O)c1ccccc1)OCC(=O)c1ccc(Cl)s1,.,0,.,10,14,2.2,i,-7,-1.9,.
CCCCOc1ccc(C(=O)N/C(=C\c2cccc([N+](=O)[O-])c2)C(=O)OCCC)cc1,4,2,-9,.,.,.,.,3,.,2.4
Cc1ccc(-n2c(C)c3c(C)nnc(C)c3c2C)cc1N,20,.,-8,19,8,2.6,i,-9,14,-0.9
COc1ccc(C(=O)Nc2ccccc2C(=O)NCCN2CCOCC2)cc1OC,-8,1,9,5,7,-2.9,i,-1,-1.3,-2.6
O=C(CSc1nc(=O)n2cc(Cl)ccc2n1)Nc1ccc2c(c1)OCCO2,7,99*,1,-1,0,2.1,i,-6,-2.1,-2.3
O=C(CN1CCN(Cc2ccccc2)CC1)Nc1cccc(C(F)(F)F)c1,14,-2,-3,.,.,.,.,0,.,0.6
CCOC(=O)c1c(C)c(C(=O)NCc2ccc3c(c2)OCO3)c(C)n1CC,5,-18,-1,.,.,.,.,2,.,-0.6
CCOc1ccc(C(C)=O)cc1COC(=O)CN1C(=O)NC2(CCCC2)C1=O,17,0,-7,-2,0,-2.3,i,2,-1.1,1.6
O=c1nc2s/c(=C\c3ccco3)c(=O)n2nc1Cc1ccc(F)cc1,-6,1,19,.,.,.,.,-10,.,-4.2
COC(=O)c1ccc(N2CCN(C)CC2)c(NC(=O)c2cccs2)c1,23,-10,-1,8,11,-1.3,i,-4,-0.9,-4.6
CC1CC(C)CN(CCC(=O)Nc2ccc(Br)cc2)C1 (stereo not drawn),32,-19,-4,3,-3,-1.8,i,.,4.3,5.0
O=C(CC1CCCCC1)NC1CCCC1,-4,-4,-4,.,.,.,.,4,.,1.0
CC1CCCN(C(=O)CN(C)S(=O)(=O)c2cccc3nsnc23)C1 (stereo not drawn),2,0,0,5,5,-0.1,i,-3,1.1,-0.9
CCCCOc1ccccc1C(=O)NCCCC(=O)O,-5,-5,-3,.,.,.,.,1,.,-1.8
CC(=O)c1ccccc1OCCn1nnc(-c2ccc(C)cc2)n1,-5,.,24,.,.,.,.,4,.,4.5

# The list continues.
Molecule,T cruzi repl,ALR H2O2 inh,Calb FLC,rRNA inh HTS,rRNA inh HTS OD600,rRNA inh HTS RFP,FGF22 binding,Beta cell apopt,MLL AF4-AF9 inh,RanGTP-Impb inh
Cc1ccc(OCCCN2C(=O)C(=O)c3cccc(C)c32)cc1,-1,2,2,.,.,.,.,-3,.,-0.3
O=S(=O)(N1CCCCCC1)N1CCN(S(=O)(=O)N2CCOCC2)CC1,0,-6,-4,.,.,.,.,-4,.,-2.5
Cc1csc2nc(CNS(=O)(=O)c3ccc4c(c3)OCCO4)cn12,-6,-3,-4,-6,8,3.6,i,-3,-3.5,-2.5
Cc1ccc2c(=O)[nH]c(Nc3nc(C)cc(-c4ccccc4)n3)nc2c1,17,1,13,10,4,-4.4,i,15,-16,-3.0
CC(C)Sc1nc2c(c(=O)[nH]c(=O)n2C)n1Cc1ccc(Cl)cc1,-5,-5,1,.,.,.,.,10,.,1.5
Cc1ccc(C2=NN(C(=O)CSc3nccn3C)C(c3ccco3)C2)cc1 (stereo not drawn),3,-11,-2,-6,-1,4.2,i,.,6.9,-2.0
CCN=C1SC(C(=O)Nc2ccc(OC)cc2)CC(=O)N1CC (stereo not drawn),1,-2,-6,-2,0,-0.4,i,-3,-2.6,-3.3
COc1ccc(C(=O)CSc2nn3c(=O)c(C(C)(C)C)nnc3s2)cc1,-17,97*,3,.,.,.,.,-4,.,-1.5
Cc1c2ccccc2nc2ccccc12,3,-23,1,10,-6,-1.6,i,-11,2.3,3.8
c1ccc(OCCOCCN2CCc3ccccc3C2)cc1,?,2,-41,-2,-3,-1.5,i,-9,-6.2,-0.6
Cc1cc(=O)oc2c(C)c(OC(C)C(=O)NCCCN3CCCC3=O)ccc12 (stereo not drawn),1,-4,.,6,9,0.6,i,3,-2.9,0.6
